Screens: PubChem BioAssay, Broad Institute
NOMO-1 viab = NOMO-1 AML cell viability reduction, primary screen, STK33 inhibitor project, CellTiter-Glo luminescence; NOMO-1 AML viability, 72 h; inhibition, % (concentration not given with the values); 37,000 compounds, 7.5% hits;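 active = most replicates above 80%; inconclusive = exactly half above 80%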;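 also: wells of about 30 µL received 25 nL stock; 0% = median of vehicle wells and 100% = reference inhibitor level; the first replicate is given; inactives centre near 10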
An asterisk follows results filed as active; ? = inconclusive.

SMILES	NOMO-1 viab
C[C@H]1CN([C@@H](C)CO)C(=O)c2cccc(NC(=O)Nc3ccc(C(F)(F)F)cc3)c2O[C@H]1CN(C)S(=O)(=O)c1ccccc1	54
COC(=O)C(O)(CC(=O)Nc1ccc(OC(F)(F)F)cc1)C(F)(F)F (stereo unspecified)	13
C[C@@H]1CN([C@@H](C)CO)C(=O)c2cc(NS(C)(=O)=O)ccc2O[C@H]1CN(C)C(=O)Nc1ccc2c(c1)OCO2	6
C[C@@H]1CN([C@H](C)CO)C(=O)c2cccc(NC(=O)c3ccc(-c4nccs4)cc3)c2O[C@@H]1CN(C)C(=O)Nc1ccc(F)cc1	20
O=C(NCc1ccco1)c1cc(-c2cccnc2)nc2ccc(Br)cc12	35
C[C@@H]1CN([C@@H](C)CO)C(=O)c2cccc(NC(=O)C3CCOCC3)c2O[C@H]1CN(C)C(=O)Nc1ccccc1	6
O=C(c1ccc([N+](=O)[O-])cc1)n1nc(-c2ccc(Cl)cc2)nc1NCc1ccco1	?
Cc1ccc(C(=O)CC2(O)C(=O)N(CC(N)=O)c3ccccc32)s1 (stereo unspecified)	-1
Cc1ccc(S(=O)(=O)Nc2ccc3c(c2)CC(=O)N([C@@H](C)CO)C[C@H](C)[C@H](CN(C)Cc2ccc(C(=O)Nc4ccccc4N)cc2)O3)cc1	139*
CC(C)NC(=O)Nc1ccc2c(c1)C(=O)N([C@@H](C)CO)C[C@@H](C)[C@@H](CN(C)S(=O)(=O)c1cn(C)cn1)O2	16
CNC[C@@H]1Oc2ccc(NC(=O)Nc3ccccc3)cc2C(=O)N([C@H](C)CO)C[C@H]1C	8
C[C@@H]1CN([C@@H](C)CO)C(=O)c2cccc(NC(=O)Nc3ccc4c(c3)OCO4)c2O[C@H]1CN(C)Cc1ccccc1	107*
C[C@@H]1CN([C@H](C)CO)C(=O)Cc2cc(NC(=O)CCC(F)(F)F)ccc2O[C@@H]1CN(C)C(=O)Nc1ccccc1	-5
COc1ccc(NC(=O)Nc2ccc3c(c2)CC(=O)N([C@H](C)CO)C[C@@H](C)[C@@H](CN(C)CC2CCCCC2)O3)cc1	31
C[C@@H]1CN([C@H](C)CO)C(=O)c2cc(NC(=O)Nc3ccc4c(c3)OCO4)ccc2O[C@H]1CN(C)S(=O)(=O)c1ccc(F)cc1	5
Cc1noc(C)c1NC(=O)N(C)C[C@@H]1Oc2ccc(NS(=O)(=O)c3c(C)noc3C)cc2C(=O)N([C@@H](C)CO)C[C@H]1C	2
C[C@@H]1CN([C@H](C)CO)C(=O)Cc2cc(NC(=O)Cc3ccccc3)ccc2O[C@@H]1CN(C)Cc1ccncc1	10
COc1c(OC)c2c(C)cccc2oc1=O	1
Cc1noc(C)c1S(=O)(=O)Nc1ccc2c(c1)C(=O)N([C@@H](C)CO)C[C@H](C)[C@H](CN(C)C(=O)Nc1ccc3c(c1)OCO3)O2	12
C[C@@H]1CN([C@H](C)CO)C(=O)c2cc(NC(=O)Cc3cn(C)c4ccccc34)ccc2O[C@H]1CN(C)CC1CCCCC1	43

In the list so far, these have sulfur.
SMILES	NOMO-1 viab
C[C@H]1CN([C@@H](C)CO)C(=O)c2cccc(NC(=O)Nc3ccc(C(F)(F)F)cc3)c2O[C@H]1CN(C)S(=O)(=O)c1ccccc1	54
C[C@@H]1CN([C@@H](C)CO)C(=O)c2cc(NS(C)(=O)=O)ccc2O[C@H]1CN(C)C(=O)Nc1ccc2c(c1)OCO2	6
C[C@@H]1CN([C@H](C)CO)C(=O)c2cccc(NC(=O)c3ccc(-c4nccs4)cc3)c2O[C@@H]1CN(C)C(=O)Nc1ccc(F)cc1	20
Cc1ccc(C(=O)CC2(O)C(=O)N(CC(N)=O)c3ccccc32)s1 (stereo unspecified)	-1
Cc1ccc(S(=O)(=O)Nc2ccc3c(c2)CC(=O)N([C@@H](C)CO)C[C@H](C)[C@H](CN(C)Cc2ccc(C(=O)Nc4ccccc4N)cc2)O3)cc1	139*
CC(C)NC(=O)Nc1ccc2c(c1)C(=O)N([C@@H](C)CO)C[C@@H](C)[C@@H](CN(C)S(=O)(=O)c1cn(C)cn1)O2	16
C[C@@H]1CN([C@H](C)CO)C(=O)c2cc(NC(=O)Nc3ccc4c(c3)OCO4)ccc2O[C@H]1CN(C)S(=O)(=O)c1ccc(F)cc1	5
Cc1noc(C)c1NC(=O)N(C)C[C@@H]1Oc2ccc(NS(=O)(=O)c3c(C)noc3C)cc2C(=O)N([C@@H](C)CO)C[C@H]1C	2
Cc1noc(C)c1S(=O)(=O)Nc1ccc2c(c1)C(=O)N([C@@H](C)CO)C[C@H](C)[C@H](CN(C)C(=O)Nc1ccc3c(c1)OCO3)O2	12

Remaining list, next part
SMILES	NOMO-1 viab
CC(Sc1ncnc2sc(-c3ccccc3)cc12)C(=O)Nc1ccccc1C(F)(F)F (stereo unspecified)	0
C[C@H](CO)N1C[C@H](C)[C@@H](CN(C)CC2CCCCC2)Oc2ccc(NC(=O)Nc3ccc(F)cc3)cc2C1=O	-3
COc1ccccc1NC(=O)C1CCCN(S(=O)(=O)c2ccc(Br)cc2)C1 (stereo unspecified)	13
COc1ccc(S(=O)(=O)Nc2ccc3c(c2)CC(=O)N([C@@H](C)CO)C[C@H](C)[C@H](CN(C)Cc2ccc(C(=O)O)cc2)O3)cc1	17
COc1ccc(S(=O)(=O)Nc2ccc3c(c2)CC(=O)N([C@H](C)CO)C[C@H](C)[C@H](CN(C)S(=O)(=O)c2cccs2)O3)cc1	7
Cc1cc(C)c(NC(=O)CN(c2ccccc2)S(=O)(=O)N(C)C)c(C)c1	18
Cc1noc(C)c1NC(=O)N(C)C[C@H]1Oc2ccc(NC(=O)CCC(F)(F)F)cc2C(=O)N([C@@H](C)CO)C[C@H]1C	22
O=C(O)C1CC(c2ccccc2)=C(c2ccccc2)CC1C(=O)c1ccccc1 (stereo unspecified)	13
NC(=O)CSc1nc2c(c(=O)n1Cc1ccccc1)C1(CCCC1)Cc1ccccc1-2	20
C[C@@H]1CN([C@H](C)CO)C(=O)c2cccc(NC(=O)Nc3ccc(F)cc3)c2O[C@@H]1CN(C)S(=O)(=O)c1cccs1	22
C[C@@H]1CN([C@H](C)CO)C(=O)c2cccc(NC(=O)Nc3ccc(F)cc3)c2O[C@@H]1CN(C)Cc1ccccc1	9
C=C(C(=O)O)C1CC=C(CCC(C)=O)[C@@H](C)CC1 (stereo partly specified)	45
CS(=O)(=O)N1N=C(c2cccc(NS(=O)(=O)c3ccccc3)c2)CC1c1ccco1 (stereo unspecified)	68
CC(C)NC(=O)Nc1cccc2c1O[C@H](CN(C)C(=O)Nc1ccc(F)cc1)[C@H](C)CN([C@H](C)CO)C2=O	-2
CC(C)NC(=O)N(C)C[C@@H]1Oc2c(NC(=O)C3CCOCC3)cccc2C(=O)N([C@@H](C)CO)C[C@@H]1C	-5
CN(C)S(=O)(=O)c1ccc(C(=O)NCc2cccnc2)cc1	17
CC(C)NC(=O)N(C)C[C@@H]1Oc2c(NC(=O)c3nc4ccccc4s3)cccc2C(=O)N([C@@H](C)CO)C[C@H]1C	-6
COc1ccc(C)cc1NC(=O)CN(c1cc(C)cc(C)c1)S(C)(=O)=O	3
Cc1ccc(S(=O)(=O)N(C)Cc2nc(-c3ccccn3)no2)cc1	-1
C[C@H]1CN([C@@H](C)CO)C(=O)c2cc(NC(=O)CCC(F)(F)F)ccc2O[C@H]1CN(C)CC1CCCCC1	24

Compounds above that contain an aryl thioether with sulfur outside any ring (2):
SMILES	NOMO-1 viab
CC(Sc1ncnc2sc(-c3ccccc3)cc12)C(=O)Nc1ccccc1C(F)(F)F (stereo unspecified)	0
NC(=O)CSc1nc2c(c(=O)n1Cc1ccccc1)C1(CCCC1)Cc1ccccc1-2	20

(continued)
SMILES	NOMO-1 viab
C[C@@H]1CN([C@H](C)CO)C(=O)c2cccc(NC(=O)c3ccncc3)c2O[C@H]1CN(C)S(=O)(=O)c1ccc(F)cc1	5
COc1ccc(/C=C/C(=O)O[C@]2(C)CCC3C(C(=O)O)=CO[C@@H](O[C@@H]4O[C@H](CO)[C@@H](O)[C@H](O)[C@H]4O)[C@@H]32)cc1 (stereo partly specified)	2
C[C@H]1CN([C@@H](C)CO)C(=O)c2cccc(NS(=O)(=O)c3ccccc3)c2O[C@H]1CN(C)S(C)(=O)=O	12
C[C@H]1CN([C@@H](C)CO)C(=O)Cc2cc(NC(=O)CCC(F)(F)F)ccc2O[C@@H]1CN(C)Cc1ccc(C(F)(F)F)cc1	40
COc1ccc(NC(=O)Nc2ccc3c(c2)CC(=O)N([C@@H](C)CO)C[C@H](C)[C@@H](CN(C)Cc2ccc(-c4ccccc4)cc2)O3)cc1	13
CCCc1cc(=O)[nH]c(SCC(=O)Nc2cc(Cl)ccc2Cl)n1	31
COC(=O)C(C(CO)Cc1ccc(O)c(OC)c1)C(O)c1ccc(O)c(OC)c1 (stereo unspecified)	108*
C[C@H]1CN([C@@H](C)CO)C(=O)c2cc(NS(=O)(=O)c3cccs3)ccc2O[C@H]1CN(C)C(=O)Nc1cccc2ccccc12	-2
Cc1noc(C)c1NC(=O)Nc1ccc2c(c1)C(=O)N([C@H](C)CO)C[C@H](C)[C@@H](CN(C)Cc1ccncc1)O2	-5
C[C@@H]1CN([C@H](C)CO)C(=O)c2cccc(NC(=O)c3ccncc3)c2O[C@@H]1CN(C)C(=O)Nc1ccc2c(c1)OCO2	26
Cc1ccc2[nH]c(C)c(CCNC(=O)Nc3ccc(Cl)cc3)c2c1	74
COc1cc(OC)cc(-c2nnc(SCC(=O)N3c4ccccc4Sc4ccccc43)o2)c1	17
CC(Oc1ccc(Cl)cc1Cl)C(=O)Nc1ccc2oc(-c3cccnc3)nc2c1 (stereo unspecified)	45
CC(C)(C)OC(=O)N1CCN(Cc2ccccc2)CC1	-7
Cc1noc(C)c1NC(=O)Nc1ccc2c(c1)CC(=O)N([C@H](C)CO)C[C@@H](C)[C@H](CN(C)C(=O)Nc1ccccc1)O2	13
CC(C)NC(=O)Nc1cccc2c1O[C@@H](CN(C)C(=O)Nc1ccc(C(F)(F)F)cc1)[C@@H](C)CN([C@@H](C)CO)C2=O	24
CCOC(=O)c1c(NC(=S)N(C)Cc2c(C)nn(C)c2C)sc2c1CCCCCC2	38
O=C(NCC1CCCO1)c1ccccc1S(=O)(=O)c1ccc([N+](=O)[O-])cc1 (stereo unspecified)	6
COc1ccc(NC(=O)Nc2cccc3c2O[C@H](CN(C)Cc2ccc(Cl)c(Cl)c2)[C@@H](C)CN([C@@H](C)CO)C3=O)cc1	91*
COc1ccc(S(=O)(=O)Nc2ccc3c(c2)C(=O)N([C@@H](C)CO)C[C@@H](C)[C@H](CN(C)S(=O)(=O)c2ccccc2)O3)cc1	6
COC(=O)c1ccccc1NC(=O)c1nc2ncccn2n1	26
C[C@H](CO)N1C[C@H](C)[C@H](CN(C)Cc2ccc(-c3ccccc3)cc2)Oc2ccc(NC(=O)CCN3CCOCC3)cc2C1=O	27
O=C(CSc1nc2cc3ccccc3cc2[nH]1)Nc1cccc(C(F)(F)F)c1	51
CC(C)(CO)NC(=S)NCC1CCCO1 (stereo unspecified)	-4
CC(C)(C)c1ccc(C(=O)N2CCN(c3ccc([N+](=O)[O-])c(NCc4cccnc4)c3)CC2)cc1	111*
C[C@H]1CN([C@@H](C)CO)C(=O)c2cc(NC(=O)Nc3cccc4ccccc34)ccc2O[C@@H]1CN(C)Cc1ccc(Cl)c(Cl)c1	109*
O=C(CCn1cnc2ccccc2c1=O)Nc1ccc2c(c1)Cc1ccccc1-2	3
O=C(CSc1ncnc2nc[nH]c12)N1CCOCC1	-3
C[C@@H]1CN([C@@H](C)CO)C(=O)c2cc(NS(=O)(=O)c3ccc(Cl)cc3)ccc2O[C@H]1CN(C)C(=O)Nc1ccc(F)cc1	-7
CS(=O)(=O)N(CC(=O)Nc1ccccc1C(F)(F)F)C1CCCCC1	6
OC1C=CC(O)C23OC12C(O)C=CC31Oc2cccc3cccc(c23)O1 (stereo unspecified)	22
COc1c(CO)c(O)cc2c1C(=O)CCC2O (stereo unspecified)	17
COc1ccc(CN(C)C[C@H]2Oc3ccc(NC(=O)NC4CCCCC4)cc3C(=O)N([C@@H](C)CO)C[C@H]2C)cc1	17
CC(C)C(=O)Nc1sc2c(c1C(=O)Nc1cccnc1)CCCC2	-12
CC(C)NC(=O)Nc1ccc2c(c1)C(=O)N([C@@H](C)CO)C[C@H](C)[C@H](CN(C)C(=O)Nc1ccc(F)cc1)O2	9
CC(C)C(OC(=O)c1ccccc1)c1nccc2ccccc12 (stereo unspecified)	58
C[C@@H]1CN([C@H](C)CO)C(=O)c2cccc(NC(=O)C3CCOCC3)c2O[C@@H]1CN(C)Cc1ccccc1	19
O=C(CSc1nc2ccccc2o1)Nc1ccccn1	3
C[C@H](CO)N1C[C@H](C)[C@H](CN(C)S(=O)(=O)c2ccc(Cl)cc2)Oc2ccc(NC(=O)NC3CCCCC3)cc2CC1=O	119*
COc1ccc(S(=O)(=O)N(C)C[C@@H]2OCCCC[C@@H](C)Oc3ccc(NC(=O)Nc4cccc5ccccc45)cc3C(=O)N([C@H](C)CO)C[C@@H]2C)cc1	7
N#Cc1c(C(F)(F)F)cc(-c2cccs2)nc1Sc1ccccc1NC(=O)c1cccs1	34
O=C(NCc1ccco1)c1cc(-c2ccccc2)on1	9
C[C@H](CO)N1C[C@H](C)[C@H](CN(C)Cc2ccc(Oc3ccccc3)cc2)Oc2ccc(NC(=O)Nc3ccc(C(F)(F)F)cc3)cc2CC1=O	119*
C[C@@H]1CN([C@H](C)CO)C(=O)c2cccc(NS(=O)(=O)c3ccc(Cl)cc3)c2O[C@H]1CN(C)S(=O)(=O)c1ccccc1	12
Cc1nc2c(o1)N(c1ccccc1)C(N)=C(C#N)C2c1ccc(OC(C)C)cc1 (stereo unspecified)	?
COc1ccc(S(=O)(=O)N(C)C[C@H]2Oc3ccc(NS(C)(=O)=O)cc3CC(=O)N([C@H](C)CO)C[C@H]2C)cc1	5
CC(=O)NCCc1c[nH]c2ccc(O)cc12	9
CNC[C@H]1Oc2c(NS(=O)(=O)c3ccc(Cl)cc3)cccc2C(=O)N([C@H](C)CO)C[C@@H]1C	0
C[C@@H]1CN([C@H](C)CO)C(=O)c2cccc(NC(=O)Nc3ccc4c(c3)OCO4)c2O[C@@H]1CN(C)Cc1ccc(-c2ccccc2)cc1	94*

Some of the compounds tested; the hit share may differ from the screen's.
